HepG2 viability – HepG2 cell cytotoxicity, dose response, cytotoxicity control, ATP luminescence, cherry-pick, activator set 2 (AID 1053143); HepG2 viability, CellTiter-Glo ATP luminescence, 72 h; activity change, negative = cytotoxicity, % at the top dose, mostly 26 µM; hits show AC50 in µM; 3,400 compounds, 3.7% hits;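 active means fitted AC50 at most twice the highest valid dose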;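 further: 0 = neutral control and -100 = positive control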
An asterisk follows results filed as active; [ ] = remark or other dose. The list is partial; rates above refer to the full screens.

SMILES	HepG2 viability
Brc1ccc(C2CC(c3ccccc3)=Nc3ccccc3N2)cc1 (configuration not stated)	-19%
CCOC(=O)c1ccc(OS(=O)(=O)c2ccccc2)c(OC)c1	-7%
Cc1csc(-c2coc3cc(O)cc(C)c3c2=O)n1	-16%
O=C(Nc1ccc2ccccc2n1)c1ccccc1Cl	-21%
O=C(Nc1ccc2oc(-c3ccc(Cl)c(Cl)c3)nc2c1)c1ncn[nH]1	-9%
COc1ccccc1OCCSc1nc2ccccc2c(=O)[nH]1	-6%
O=C(Nc1cccc(-c2cn3c(n2)SCC3)c1)c1ccc2ccccc2n1	-2%
COc1cccc2c1C(=O)O/C2=C/c1ccc2c(c1)OCO2	-7%
COc1ccccc1CCc1nnc(CCC(=O)N(C)Cc2cccc3cnccc23)o1	-16%
COc1nc(-c2ccccc2)ccc1-c1noc(C)n1	-19%
CCNC(=O)c1sc2cc(C)ccc2c1Cl	14%
O=C(COc1ccc(Cl)cc1)Nc1ncc([N+](=O)[O-])s1	-17%
O=[N+]([O-])c1ccccc1-c1nc(-c2ccc(Br)o2)no1	-2%
CC(=O)Nc1ccc2c(c1)C(=Nc1cccc(C)c1)c1ccccc1-2	-9%
Fc1ccc(N2CCN(Cc3ccccn3)CC2)cc1	-7%
O=C(CSc1ccc(-c2nc3ccccc3[nH]2)cn1)Nc1ccc(S(=O)(=O)N2CCCC2)cc1	-30%
CC(=O)Nc1nonc1NC(=O)c1ccc(C(C)(C)C)cc1	-19%
Nc1nc(Nc2ccccc2)nc2ccccc12	26µM*
CC(C)(c1ccccc1)c1ccc(OCc2ccc(C(=O)O)o2)cc1	-18%
O=C(COC(=O)c1cc2ccccc2oc1=O)Nc1ccc(F)cc1F	8%
CCOC(=O)C1CCN(C(=O)C(CC)c2ccccc2)CC1 (configuration not stated)	0%
CN(C(=O)c1cc2c(=O)n3ccccc3nc2n1C)C1CCCCC1	-15%
O=C(Nc1nccs1)c1ccc(-c2cccc([N+](=O)[O-])c2)o1	-11%
Clc1ccc2nc(CSc3nc4ccccc4o3)cn2c1	-14%
Cc1sc(NC(=O)Nc2ccccc2)c(C(N)=O)c1C	-20%
O=C(NC(=O)c1ccccc1)Nc1ccc(Cl)cn1	-11%
C(=C\c1nc(-c2cccnc2)no1)/c1ccccc1	-2%
C/C(=N\NS(=O)(=O)c1ccc([N+](=O)[O-])cc1)c1ccc(NC(=O)c2ccco2)cc1	-12%[12 µM]
Clc1ccc(-c2nnc(-c3cccc4ccccc34)o2)cc1	-19%
CCc1nc2n(n1)C(O)c1cc([N+](=O)[O-])ccc1S2 (configuration not stated)	-11%
COc1cccc(C(=O)Nc2nnc(-c3ccccc3)s2)c1	-10%
Cn1nnc2cc(NC(=O)Nc3ccccc3F)ccc21	-19%
COc1ccc(-c2nnc(NC(=O)C(C)C)s2)c(OC)c1	7%[12 µM]
Cn1c(-c2ccc(C(=O)c3ccccc3)s2)nc2ccccc21	-15%
Cc1nc(N=Nc2ccc(O)cc2)n[nH]1	-15%
O=C(NCc1ccco1)/C(=C/c1ccc(C(F)(F)F)cc1)c1nc2ccccc2[nH]1	-10%
Cc1ccc(Nc2ncccc2C(N)=O)cc1[N+](=O)[O-]	-17%
CCOc1ccc(C(=O)Nc2ccc(Cl)cn2)cc1Cl	-5%
O=C(Nc1ccccc1)c1cc2ccc3ccccc3c2s1	-23%
O=C(Nc1ccc(N2CCCC2)cc1)c1cccc(Cl)c1	-16%
Cc1ccc(C2=NN3C(C(=O)c4ccccc4)Oc4ccccc4C3C2)cc1 (configuration not stated)	-15%
Fc1ccccc1CSc1nnc(-c2cccnc2)o1	-10%
COc1ccc(-c2csc(NC(=O)CC(C)C)n2)cc1	-15%
Cc1ccc(C)c(-n2ccnc2SCC(=O)Nc2cccc(S(=O)(=O)NC3=NCCC3)c2)c1	21%
CCOC(=O)c1ccc(Nc2cnc3ccccc3n2)cc1	-3%
Cc1nc(NC(=O)/C=C/c2ccccc2)n[nH]1	-9%
O=C(NCCc1ccccc1)c1ccc(Cl)nc1	19%
Cc1ccc(Nc2ncc3c(n2)CC(C)CC3=O)c(C)c1 (configuration not stated)	16%
Fc1ccc(OCc2nc3ccccc3s2)cc1	-11%
CSc1nc2ccc(NC(=O)c3ccc(F)c(F)c3)cc2s1	-6%
Cc1ccc(NC(=O)c2ccc3c(c2)nnn3C)cc1	-15%
COc1cc(NC(=O)c2cccs2)ccc1NC(=O)c1ccco1	12µM*
O=C(/C=C/c1ccc2c(c1)OCO2)c1ccc[nH]1	-7%
Cc1cc(/C=C2\C(=N)N3N=CSC3=NC2=O)c(C)n1Cc1ccccc1	-14%[12 µM]
COc1cccc(-c2csc(NC(=O)C3CC3)n2)c1	-13%
c1ccc(-c2noc(C3CCCCC3)n2)nc1	6%
Cc1cc(/C=N/NC(=O)c2cccc(F)c2)c(C)n1-c1ccccc1	-5%
CCCOC(=O)c1ccc(NC(=O)CC(C)(C)C)cc1	-1%
COc1c(OC2OC(C(=O)O)C(O)C(O)C2O)cc(O)c2c(=O)cc(-c3ccccc3)oc12 (configuration not stated)	-18%
CCOc1ccc(N/C(C)=C/C(=O)c2ccc3c(c2)OCCO3)cc1	-6%
Continued.
SMILES	HepG2 viability
Cc1cc(C)n(-c2nc3ccccc3s2)n1	-11%
O=C(CSc1nnc2ccccn12)c1ccc(Cl)cc1	-8%
COC(=O)c1c(-c2cccnc2)csc1NC(=O)c1cc(C)on1	-19%
Cc1ccc(OCC(=O)Nc2cccc(O)c2)cc1C	-3%
O=C(OCC(=O)N1CCc2ccccc2C1)c1c(F)cccc1Cl	-2%
COc1cc(/C=C2/C(=O)ON=C2C)ccc1OCc1ccccc1F	14%[12 µM]
CN(C(=O)C1CCC(=O)N(Cc2cccc(F)c2)C1)C1CCCCC1 (configuration not stated)	7%
CC(C)c1ccc2nc(NC(=O)C3CC3)sc2c1	-10%
O=C(COc1ccc(/C=N/NC(=O)c2ccc(O)cc2)cc1)Nc1ccc([N+](=O)[O-])cc1	-14%
CC1CCC(NC(=O)c2cccn2C)CC1 (configuration not stated)	-13%
NC(=O)c1ccccc1N/C=C/C(=O)c1ccc(F)cc1	-15%
CC(Sc1ccccc1F)C(=O)Nc1ccc2c(c1)OCCO2 (configuration not stated)	-17%[12 µM]
COc1ccccc1OCCNC(=O)c1ccc2c(c1)OCCO2	-7%
Cc1cc(=O)oc2cc(OCC(=O)Nc3nccs3)ccc12	0%
Nn1c(SCc2ccccc2F)nnc1-c1ccccn1	-24%
CC(=O)c1cccc(NC(=O)c2ccc(-c3ccccc3[N+](=O)[O-])o2)c1	2%
NC(=O)[C@H]1CC2(CC(c3cccc(NC(=O)c4ccccc4)c3)=NO2)CN1C(=O)[C@H]1CCC(=O)N1 (some centres not stated)	-17%[12 µM]
O=C(Nc1nc(-c2ccc(F)cc2)cs1)C1CCCO1 (configuration not stated)	2%
O=C(Oc1cccc2cccnc12)c1cccc(-n2cnnn2)c1	-31%
CC(C)(C)C(=O)Nc1nc2cc3c(cc2s1)OCO3	-19%
c1ccc(-c2nc(-c3ccc(-c4ccon4)s3)no2)cc1	12%
COc1ccc2[nH]c3c(=O)n(CCc4ccccc4)cnc3c2c1	-10%
Cc1cc(/C=C2/SC(=O)N(CC(=O)OC(C)C)C2=O)c(C)n1C	-12%[12 µM]
Cc1ccccc1Cn1nnc(C(=O)Nc2ccc3c(c2)OCCO3)c1N	-14%
O=C(Nc1cccc(Cl)c1)Nc1ccc2c(c1)OCO2	-21%
O=c1[nH]c2ccccc2nc1CCc1ccccc1	-10%
CC(C)(C)C(=O)/C=C/c1ccc(Oc2ccccc2)cc1	36%
COCCCNC(=O)Cc1ccc(S(=O)(=O)N2CCOCC2)s1	12%
Clc1nc2ccccc2cc1/C=N/Nc1nc2ccccc2[nH]1	-7%
Cc1ccc(Nc2nc(-c3ccncc3)cs2)cc1	-5%
c1ccc(CCc2nc3ccccc3[nH]2)cc1	-8%
COC(=O)CSc1nc2ccc(C)cc2cc1C#N	-6%
Nc1nc2ccccc2n1/N=C/c1ccc(-c2ccccc2)o1	-26%
O=C(O)/C=C/C(=O)Nc1ccccc1C(=O)OCC(=O)c1ccc2c(c1)OCCO2	-19%[12 µM]
OCCC1CN(Cc2nc(-c3ccccc3)cs2)CCN1C1CCCC1 (configuration not stated)	-9%
CC(C)S(=O)(=O)N1CCCC(c2cc(C(=O)Nc3ccc(F)c(Cl)c3)no2)C1 (configuration not stated)	10%
COc1cccc(C=Cc2nccc3ccccc23)c1OC	-24%
NC(=O)Cc1c[nH]c2cccc(O)c12	-2%
N#Cc1ccc(-c2csc(NC3=NCCCCC3)n2)cc1	-18%
CC(=O)CCSc1ncnc2sc(-c3ccccc3)cc12	7%
COc1cc(OC)cc(-c2nc3cc(C)ccc3o2)c1	26µM*
O=[N+]([O-])c1cccc(-c2cn3ccccc3n2)c1	-7%[6 µM]
O=C1C2C3CCC(C3)C2C(=O)N1c1ccc(OS(=O)(=O)c2ccccc2)cc1 (configuration not stated)	-14%
CCOC(=O)c1oc2nc3c(cc2c1N)CCCC3	20%
Cc1ccc(OCc2cc(C(=O)NCC(C)(C)N3CCOCC3)no2)cc1C	-5%

Part of the list above in another layout:
canonical_smiles,HepG2 viability
NC(=O)c1ccccc1N/C=C/C(=O)c1ccc(F)cc1,-15%
CC(Sc1ccccc1F)C(=O)Nc1ccc2c(c1)OCCO2 (configuration not stated),-17%[12 µM]
COc1ccccc1OCCNC(=O)c1ccc2c(c1)OCCO2,-7%
Cc1cc(=O)oc2cc(OCC(=O)Nc3nccs3)ccc12,0%
Nn1c(SCc2ccccc2F)nnc1-c1ccccn1,-24%
CC(=O)c1cccc(NC(=O)c2ccc(-c3ccccc3[N+](=O)[O-])o2)c1,2%
NC(=O)[C@H]1CC2(CC(c3cccc(NC(=O)c4ccccc4)c3)=NO2)CN1C(=O)[C@H]1CCC(=O)N1 (some centres not stated),-17%[12 µM]
O=C(Nc1nc(-c2ccc(F)cc2)cs1)C1CCCO1 (configuration not stated),2%
O=C(Oc1cccc2cccnc12)c1cccc(-n2cnnn2)c1,-31%
CC(C)(C)C(=O)Nc1nc2cc3c(cc2s1)OCO3,-19%
c1ccc(-c2nc(-c3ccc(-c4ccon4)s3)no2)cc1,12%
COc1ccc2[nH]c3c(=O)n(CCc4ccccc4)cnc3c2c1,-10%
Cc1cc(/C=C2/SC(=O)N(CC(=O)OC(C)C)C2=O)c(C)n1C,-12%[12 µM]
Cc1ccccc1Cn1nnc(C(=O)Nc2ccc3c(c2)OCCO3)c1N,-14%
O=C(Nc1cccc(Cl)c1)Nc1ccc2c(c1)OCO2,-21%
O=c1[nH]c2ccccc2nc1CCc1ccccc1,-10%
CC(C)(C)C(=O)/C=C/c1ccc(Oc2ccccc2)cc1,36%
COCCCNC(=O)Cc1ccc(S(=O)(=O)N2CCOCC2)s1,12%
Clc1nc2ccccc2cc1/C=N/Nc1nc2ccccc2[nH]1,-7%
Cc1ccc(Nc2nc(-c3ccncc3)cs2)cc1,-5%
c1ccc(CCc2nc3ccccc3[nH]2)cc1,-8%
COC(=O)CSc1nc2ccc(C)cc2cc1C#N,-6%
Nc1nc2ccccc2n1/N=C/c1ccc(-c2ccccc2)o1,-26%
O=C(O)/C=C/C(=O)Nc1ccccc1C(=O)OCC(=O)c1ccc2c(c1)OCCO2,-19%[12 µM]
OCCC1CN(Cc2nc(-c3ccccc3)cs2)CCN1C1CCCC1 (configuration not stated),-9%
CC(C)S(=O)(=O)N1CCCC(c2cc(C(=O)Nc3ccc(F)c(Cl)c3)no2)C1 (configuration not stated),10%
COc1cccc(C=Cc2nccc3ccccc23)c1OC,-24%
NC(=O)Cc1c[nH]c2cccc(O)c12,-2%
N#Cc1ccc(-c2csc(NC3=NCCCCC3)n2)cc1,-18%
CC(=O)CCSc1ncnc2sc(-c3ccccc3)cc12,7%
COc1cc(OC)cc(-c2nc3cc(C)ccc3o2)c1,26µM*
O=[N+]([O-])c1cccc(-c2cn3ccccc3n2)c1,-7%[6 µM]
O=C1C2C3CCC(C3)C2C(=O)N1c1ccc(OS(=O)(=O)c2ccccc2)cc1 (configuration not stated),-14%
CCOC(=O)c1oc2nc3c(cc2c1N)CCCC3,20%

The list goes on.
SMILES	HepG2 viability
O=C(Nc1ccc(F)c(Cl)c1)c1cc(C2CCCN(C(=O)C3CC3)C2)on1 (configuration not stated)	4%
O=C(Nc1cc(-c2ccccc2)[nH]n1)c1ccccc1	-9%
O=C(NC(=O)N1CCSCC1)c1c(Cl)cccc1Cl	-7%
O=C(Nc1ccc(Cl)cc1)c1ccc(-c2ccccn2)s1	-9%
O=C(c1cc(-c2cccc(Cl)c2)on1)N1CCCC1	4%
C/C(=C\c1ccccc1)C(=O)NCCc1ccccc1	3%
Cc1cc(C)cc(NC(=O)Nc2ccc(N3CCCCC3)cc2)c1	26µM*
Cc1nccn1C(c1ccccc1)c1ccccc1	9%
O=C(NC1CCCC1)c1cc(-c2ccccc2)on1	26µM*
CC(C)c1ccc(NC(=O)c2cccc(Br)c2)cc1	18%
Cc1ccccc1S(=O)(=O)/N=C(/Nc1nc2ccccc2s1)c1ccccc1	-8%
CC(C)(C)OC(=O)N/N=C\C=C\c1ccc2c(c1)OCO2	2%
O=C(c1ccc(Br)cc1)c1coc2ccc(O)cc12	-27%
Cn1c(N)c(C(=O)COC(=O)c2cc(S(=O)(=O)N3CCOCC3)ccc2F)c(=O)n(C)c1=O	-1%
CCOC(=O)c1ccc(-c2ccc(CO)o2)cc1	-4%
Cc1nn(-c2nc3ccccc3s2)c(N)c1-c1ccc(Cl)cc1	-18%
CCOc1ccc(NC(=O)c2ccc3c(c2)N(C)CCS3)cc1	0%

Screening data (PubChem)
